From PubChem BioAssay
UCH37 inh: inhibitors of human deubiquitinating enzyme UCH37; Q9Y5K5; purified proteasome/UCH37, Ub-AMC cleavage fluorescence; inhibition, % (concentration not given with the values); 0.33% of 330,000 active; AID 588478;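 active means mean of two replicates above 20%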;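 further: 0% = compound-free wells with enzyme and 100% = wells lacking proteasome; stock transfer was 100 nL into about 20 µL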
Target sequence (Q9Y5K5 whole entry, looked up): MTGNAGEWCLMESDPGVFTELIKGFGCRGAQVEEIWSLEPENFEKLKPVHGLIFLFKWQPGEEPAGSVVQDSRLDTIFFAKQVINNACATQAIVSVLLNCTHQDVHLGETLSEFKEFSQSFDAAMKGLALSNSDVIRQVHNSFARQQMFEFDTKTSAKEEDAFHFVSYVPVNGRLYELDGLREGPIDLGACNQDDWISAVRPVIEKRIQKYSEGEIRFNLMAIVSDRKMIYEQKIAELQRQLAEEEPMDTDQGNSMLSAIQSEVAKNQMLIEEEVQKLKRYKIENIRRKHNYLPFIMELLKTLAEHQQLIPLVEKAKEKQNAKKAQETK
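Reagent: Ub-AMC substrate; assay system: Proteasome-associated human UCH37 deubiquitinase; controls: no-proteasome and no-compound wells; read-out: % inhibition of Ub-AMC cleavage fluorescence; timing: 30 min preincubation with enzyme, 25 min cleavage at room temperature; signal: AMC fluorescence from Ub-AMC cleavage, excitation 355 nm, emission 460 nm; buffer or medium: Tris-HCl pH 7.4 plus ovalbumin, ATP-MgCl2, DTT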
HNF4A DNA FP: change in binding of human HNF4 alpha to DNA; HNF4a-FITC DNA binding, fluorescence polarization, 1 h; AID 1224865; P41235; activity change, % at 10 µM; 0.3% of 360,000 active; in the data active means activity change above about 30%, passing the limit was not always enough;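 further: controls were the assay level and a saturating level of protein; the project sought stronger binding though the title names inhibitors; some compounds called inactive have numbers as strong as hits; positive values seem to mean higher polarization but the record does not say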
Beta2AR agonist: agonists of human beta-2 adrenergic receptor inducing internalization; P07550; Am2.2-beta2AR cells, FAP receptor internalization, flow cytometry; reference of the scale not given here; response, % (concentration not given with the values); 0.43% of 340,000 active;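 active means response above a set limit, near 3 SD of response in nonfluorescent compounds, cut at about 42% in these data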;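 further: stock transfer was 100 nL into about 11 µL; a reference agonist was the positive control; negative values mostly stem from fluorescent compounds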
Target sequence (P07550 whole entry, looked up): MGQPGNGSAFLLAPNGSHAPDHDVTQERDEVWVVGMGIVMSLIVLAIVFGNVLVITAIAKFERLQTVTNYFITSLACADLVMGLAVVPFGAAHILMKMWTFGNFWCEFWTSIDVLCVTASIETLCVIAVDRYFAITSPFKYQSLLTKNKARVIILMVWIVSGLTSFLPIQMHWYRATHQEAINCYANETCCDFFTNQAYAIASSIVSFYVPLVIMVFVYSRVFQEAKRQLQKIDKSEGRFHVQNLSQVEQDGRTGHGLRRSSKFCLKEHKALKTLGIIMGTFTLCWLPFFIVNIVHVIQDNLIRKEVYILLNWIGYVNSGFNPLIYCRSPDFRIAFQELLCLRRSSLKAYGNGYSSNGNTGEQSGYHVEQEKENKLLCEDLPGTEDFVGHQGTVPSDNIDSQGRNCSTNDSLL
ALR H2O2 inh: inhibitors of human sulfhydryl oxidase ALR; P55789; purified ALR, DTT oxidation, H2O2 HRP-luminol luminescence; inhibition, % (test concentration not listed); 3.8% of 290,000 active;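 active means mean and each replicate at 75% or more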;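 further: stock transfer was 7.5 nL into about 7.5 µL; 0% = neutral wells and 100% = wells with inactivated enzyme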
rRNA inh HTS: selective bacterial rRNA inhibition in E. coli | E. coli WT GFP vs humanized-ribosome RFP mutants, fluorescence, 24 h; active compounds read low; DMSO median 0, no signal -100 | GFP signal change (wild-type ribosome), % (concentration not given with the values) | 1.6% of 350,000 active | AID 720706;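 active means significant combined selectivity score with lowered wild-type GFP, culture density cut under 30%, mutant RFP and density less affected; inactive means any of these conditions unmet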; further: one replicate is shown; some compounds called inactive have numbers as strong as hits
FGF22 binding: FGF22 (human) thermal shift binding; recombinant FGF22 thermal shift, SYPRO orange fluorescence; percent of sucrose octasulfate shift, DMSO zero; calls only at 9.99 µM; 1.5% of 340,000 active;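 active means melting point raised past a set limit in the mean and every replicate; three in four hits are not shown here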
Target sequence (Q9HCT0 whole entry, looked up): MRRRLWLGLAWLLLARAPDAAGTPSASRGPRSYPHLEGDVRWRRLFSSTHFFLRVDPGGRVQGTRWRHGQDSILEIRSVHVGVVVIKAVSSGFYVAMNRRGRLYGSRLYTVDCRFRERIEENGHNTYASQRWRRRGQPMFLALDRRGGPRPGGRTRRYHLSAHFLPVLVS
Ecoli growth: blocks Escherichia coli growth; OD600, 23 h; active compounds read low; OD600 absorbance (test concentration not listed); 0.21% of 330,000 active;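 active means OD600 absorbance below the run mean of sample wells minus 3.6 SD, in any replicate, cut at about 0.56 in these data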;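 further: stock transfer was 300 nL into about 60 µL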
rRNA inh HTS OD600: also measured in rRNA inh HTS; calls as there; OD600 change, %; measured here: OD600 growth;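 optical density of the mix in the first replicate; 0 = DMSO median and -100 = no signal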
rRNA inh HTS RFP: further read-out of rRNA inh HTS, marked with its call; RFP signal change, %; measured here: RFP humanized mutant strains;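 first replicate; 0 = DMSO median and -100 = no signal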
* = called active by the depositor; i = inactive; . = not tested or not shown. Some of the compounds tested; the hit share may differ from the screen's.

no.	SMILES	HNF4A DNA FP	rRNA inh HTS RFP	ALR H2O2 inh	Ecoli growth	FGF22 binding	UCH37 inh	Beta2AR agonist	rRNA inh HTS	rRNA inh HTS OD600
1	CCC(=NC(C)c1ccccc1)c1c(O)[nH]c(=O)[nH]c1=O (centres undefined)	2.1	-1.7	-6.3	0.655	i	1.8	1.1	-1.5	-13.2
2	CC1C(OC(=O)CCC(=O)NC(C)(C)CO)O[C@H]2OC3(C)CC[C@H]4[C@H](C)CCC1C24OO3 (some centres undefined)	-1.4	29.3	.	.	i	.	0.5	-4.3	-42.5
3	COc1cc2c(c(OC)c1OC)-c1ccc(C(=O)O)cc1[C@@H](NC(C)=O)CC2	1.3	.	-4.2	.	.	-0.4	-5.3	.	.
4	CN1CN(c2ccccc2)C2(CCN(CCCSc3ccccc3NC(=O)/C=C/c3ccccc3)CC2)C1=O	0.1	-13.2	.	.	i	.	1.5	-49.3	-77.1
5	COc1ccc(OC)c(-n2c(O)c(C=NCCN3CCNCC3)c(=O)[nH]c2=S)c1	4.8	2.3	6.4	0.656	i	6.4	-13.4	22.6	12.6
6	C[N+]1(C)[C@@H]2CC[C@H]1CC(OC(=O)C(CO)c1ccccc1)C2 (some centres undefined)	-2.3	-1.6	3.9	.	i	0.3	-2.4	9.1	23.7
7	CN1CCN(c2nc(N)cc(=O)[nH]2)CC1	3.2	1.5	8.9	0.701	i	2.0	-0.2	6.3	12.4
8	c1ccc2c(c1)cc1ccc3cccc4ccc2c1c34	-2.1	13.7	.	0.66	i	-90.7	8.6	-6.9	-6.8
9	CCOP(=O)(OCC)C(O)c1ccc(N(C)C)cc1 (centres undefined)	-0.2	-0.4	86.3*	0.654	i	-1.6	0.4	8.6	9.2
10	CN1CCN(Cc2ccc3ccccc3c2)CC1	-1.4	-5.7	9.9	0.669	.	2.4	2.2	-23.6	-33.9
11	Cc1c(N=Cc2c(O)n(CCc3ccc(F)cc3)c(=O)[nH]c2=O)c(=O)n(-c2ccccc2)n1C	1.0	.	-2.1	0.745	.	3.8	-6.5	.	.
12	CCOP(=O)(OCC)C(NC(=O)c1ccc(C)cc1)=C(Cl)Cl	-0.9	3.6	-1.0	0.688	i	0.6	5.6	13.5	14.9
13	CC(C(=O)c1ccc2ccccc2c1)N1CCCCC1 (centres undefined)	-0.3	1.8	-16.7	0.69	.	-132.4	-3.1	22.2	9.0
14	COc1ccc(-n2c(O)c(C=NCCN(C)C)c(=O)[nH]c2=O)cc1	5.5	.	-2.2	0.673	i	2.8	-3.9	.	.
15	Cc1ccc2n1Cc1cnnn1-c1ccccc1-2	-1.5	-3.2	.	.	i	.	.	-7.2	-13.4
16	Cc1cc(Oc2ccc(C(F)(F)F)cc2[N+](=O)[O-])c2c3c(c(=O)oc2c1)CCCC3	-2.2	2.2	.	0.719	i	-0.6	-0.4	4.8	21.6
17	C#C[C@]1(O)CCC2C3CCC4=C/C(=N/OCC(=O)NC(C)C(=O)NC(CCSC)C(=O)O)CC[C@]4(C)C3CC[C@@]21C (some centres undefined)	-2.3	-1.3	4.9	.	i	.	4.2	-12.7	-8.4
18	CN(C)c1ccc(C(=O)c2ccc(N(C)C)cc2)cc1	-1.5	.	7.9	0.681	.	4.5	-9.8	.	.
19	O=C(C(=O)N1CCOCC1)c1cn(Cc2ccccc2Cl)c2ccccc12	-3.3	-0.2	-4.3	0.668	i	10.1	-4.0	-2.8	-4.4
20	CCOC(=O)c1cccc(C2=C(CNC(=O)c3cccnc3)[C@H]3CC[C@@H](C2)N3Cc2ccccc2)c1	-3.3	-0.2	.	.	i	.	.	4.1	7.8

For reference, 3 of the compounds above.
no.	SMILES	HNF4A DNA FP	rRNA inh HTS RFP	ALR H2O2 inh	Ecoli growth	FGF22 binding	UCH37 inh	Beta2AR agonist	rRNA inh HTS	rRNA inh HTS OD600
4	CN1CN(c2ccccc2)C2(CCN(CCCSc3ccccc3NC(=O)/C=C/c3ccccc3)CC2)C1=O	0.1	-13.2	.	.	i	.	1.5	-49.3	-77.1
5	COc1ccc(OC)c(-n2c(O)c(C=NCCN3CCNCC3)c(=O)[nH]c2=S)c1	4.8	2.3	6.4	0.656	i	6.4	-13.4	22.6	12.6
6	C[N+]1(C)[C@@H]2CC[C@H]1CC(OC(=O)C(CO)c1ccccc1)C2 (some centres undefined)	-2.3	-1.6	3.9	.	i	0.3	-2.4	9.1	23.7

Carrying on:
no.	SMILES	HNF4A DNA FP	rRNA inh HTS RFP	ALR H2O2 inh	Ecoli growth	FGF22 binding	UCH37 inh	Beta2AR agonist	rRNA inh HTS	rRNA inh HTS OD600
21	O=c1c2ccccc2nc(/C=C/c2ccco2)n1-c1ccccc1O	7.8	6.8	47.2	0.686	i	1.6	6.9	12.1	6.5
22	COc1cc(-n2c(=S)[nH]c3ccccc3c2=O)c(Cl)cc1Cl	-2.3	.	2.0	0.697	.	1.7	6.5	.	.
23	NC(N)=Nc1ccc2[nH]c3c(c2c1)C[C@@]1(O)[C@H]2Cc4ccc(O)c5c4[C@@]1(CCN2CC1CC1)C3O5 (some centres undefined)	4.5	-1.9	.	0.763	i	6.0	-1.0	-1.2	4.7
24	CCc1nnc(NS(=O)(=O)c2ccc(N=Cc3c(O)n(-c4ccccc4)c(=O)[nH]c3=O)cc2)s1	8.6	1.3	45.4	0.618	i	8.6	1.7	12.8	6.4
25	Cc1nn(Cc2ccccc2)c(C)c1C(=O)OCC(=O)Nc1cccc(S(N)(=O)=O)c1	1.4	3.8*	1.1	0.736	i	5.9	3.4	-22.1*	-3.8*
26	CC[C@H](C)[C@@H]1NC(=O)CNC(=O)c2csc(n2)[C@H](C(C)(C)O)OC(=O)C(C)(C)[C@H](CCCC(C)(Cl)Cl)OC(=O)c2csc1n2	-4.2	5.0	.	.	i	.	.	-1.7	-5.3
27	COc1cc(O)cc2c1C(=O)O[C@@H](C)CCCC(=O)CCCCC2	-2.0	-6.5	-3.0	0.659	i	1.3	13.5	-13.7	-20.4
28	COc1ccc(OC)c(C(O)C2CCCCN2)c1 (centres undefined)	-3.5	2.7	.	0.621	i	0.7	2.2	15.3	13.2
29	COc1cccc(OP(=O)(Nc2ccccc2)Oc2cccc(OC)c2)c1	1.9	.	9.5	0.662	.	1.5	9.1	.	.
30	COc1ccc(/C=C2/C(=O)NC(=O)N(c3ccccc3)C2=O)cc1CN1C(=O)c2ccccc2C1=O	-0.9	.	9.9	0.696	.	1.9	12.4	.	.
31	O=C1N(c2ccccc2)C(c2cccnc2)N2CCCN12 (centres undefined)	-1.7	0.6	-5.7	0.694	i	4.1	-2.6	15.1	-1.3
32	CCCCCCCC(=O)NC(Oc1ccccc1[N+](=O)[O-])C(Cl)(Cl)Cl (centres undefined)	-1.2	1.1	1.0	0.647	i	-0.5	7.4	-0.2	1.2
33	COC(=O)C1=C(c2ccccc2)C[C@@H]2CC[C@H]1N2C(=O)N1CCOCC1	-1.0	-2.5	.	.	i	3.5	-4.4	-0.9	1.8
34	CCC(=O)c1ccc(OCC(=O)N2CCN(CC(=O)Nc3ccc(C)cc3)CC2)cc1	0.1	-2.7	-2.3	0.626	i	-2.0	80.6*	1.3	-1.9
35	Nc1ccc(CCN2CCCC2)cc1	-0.2	0.8	-7.1	0.691	i	6.6	0.9	24.6	18.6
36	O=P1(Nc2cccnc2)COc2ccccc2OC1	-1.6	.	-17.9	0.671	.	1.3	-6.2	.	.
37	CON(C)C(=O)Nc1ccc(Cl)cc1	2.1	.	-6.3	0.654	.	0.1	1.9	.	.
38	O=C1CC(=O)N(c2ccc(Cl)cc2Cl)C(=O)N1	9.2	.	54.8	0.676	.	1.3	3.6	.	.
39	CC(=O)OC1C=CC2[C@H]3Cc4ccc(O)c5c4[C@@]2(CCN3C)C1O5 (some centres undefined)	5.2	-1.4	.	0.696	i	-0.6	-2.1	3.7	13.6
40	COc1ccc2c(c1OC)C(=O)OC2c1c(O)n(C2CCCCC2)c(=O)[nH]c1=O (centres undefined)	8.2	.	95.8*	0.696	.	-0.7	11.7	.	.
41	CC(=O)C1(c2ccccc2)CCN(C(=O)C2CCC(=O)N(CCc3cccc(F)c3)C2)CC1 (centres undefined)	2.0	0.3	-2.7	0.705	i	5.0	8.1	-0.5	-2.9
42	CC(Cc1ccccc1)NCCC(c1ccccc1)c1ccccc1 (centres undefined)	5.4	.	-11.9	0.61	i	3.5	22.4	.	.
43	Cc1cc(/C=C2\C(=O)NC(=O)N(c3ccc(F)cc3)C2=O)c(C)n1-c1ccc(C(=O)O)cc1	-0.8	3.4	98.2*	.	i	6.3	-0.2	-1.7	0.3
44	Cc1ccc(OC(F)F)c(N2C(=O)C3C4CCC(O4)C3C2=O)c1 (centres undefined)	-2.1	2.1	-5.9	.	i	.	-0.2	17.9	6.8
45	O=C1c2cccc3cccc(c23)C(=O)N1/N=C/c1c(O)n(-c2ccccc2)c(=O)[nH]c1=O	0.1	0.1	6.1	0.654	i	7.7	1.8	-7.6	-11.7
46	Fc1ccc(CCNCc2ccc(Cl)c(Cl)c2)cc1	1.0	2.4	-0.9	0.566	.	2.9	-3.9	-3.9	-10.4
47	Nc1ncnc2c1ncn2[C@@H]1O[C@H](COP(=O)(O)CP(=O)(O)O)[C@@H](O)[C@H]1O	-1.0	.	.	.	i	.	-6.5	.	.
48	COc1ccc(S(=O)(=O)Cc2ccc(C(=O)N3CCC4(CC3)OCCO4)o2)cc1	2.0	.	-7.5	0.667	.	-2.0	-4.6	.	.
49	O=c1[nH]c(O)c(N=Nc2ccc(S(=O)(=O)N3CCOCC3)cc2)c(=O)[nH]1	2.1	1.6	-2.8	0.676	i	4.9	-5.9	7.0	3.9
50	CN(CCc1ccccc1)Cc1ccccc1[N+](=O)[O-]	0.7	.	-1.6	0.71	.	-3.2	-1.5	.	.
51	COc1ccc(CCn2c(O)c(C=Nc3ccccc3F)c(=O)[nH]c2=O)cc1OC	3.1	.	-7.6	0.698	i	-14.1	0.3	.	.
52	CCC(C)n1c(C)cc(C(N)=O)c1C (centres undefined)	-3.0	-0.8	-24.8	0.68	i	2.6	3.0	7.5	4.3
53	O=c1c2cc(Br)ccc2[nH]c(=S)n1-c1ccccc1	-1.8	2.0	-4.5	0.733	i	-0.3	-4.2	14.9	6.1
54	Nc1ccc2cc(Br)ccc2c1	6.7	-1.2	-9.8	0.638	i	2.3	-0.5	-10.4	4.3
55	c1ccc(CNC2CN3CCC2CC3)cc1 (centres undefined)	-0.2	0.6	.	0.676	.	3.8	-4.1	13.8	12.3
56	COc1ccc(N2C(=O)CC(N3CC=C(c4ccccc4)CC3)C2=O)cc1 (centres undefined)	7.2	-3.2	-2.6	0.725	i	5.8	-1.2	1.5	8.0
57	O=c1[nH]c(=S)[nH]c(O)c1N=Nc1ccc(S(=O)(=O)N2CCc3ccccc32)cc1	-5.7	-2.2	1.1	0.678	i	5.5	-7.7	6.0	14.0
58	COc1cc2c(cc1OC)C13CCN4CC5CCOC6CC(=O)N2C1C6C5CC43 (centres undefined)	3.4	6.0	.	0.691	i	2.6	0.8	17.4	10.0
59	COC(=O)Nc1nc2ccccc2[nH]1	1.7	2.1	.	.	i	.	-15.6	12.1	14.8
60	COc1cccc(C2CCN(C)C2)c1 (centres undefined)	2.5	-7.0	.	.	i	.	.	-1.1	1.6
61	COC(=O)C1=C(c2ccc(F)cc2OCc2ccccc2)C[C@@H]2CC[C@H]1N2C(=O)NC(C)C	-0.4	-1.2	1.5	.	i	1.8	-8.7	7.3	20.3
62	CC(Cc1ccccc1)[n+]1cc(/N=C(\N)[O-])on1 (centres undefined)	-3.1	.	3.6	0.681	.	3.3	6.9	.	.
